HPGD inh: qHTS Assay for Inhibitors of HPGD (15-Hydroxyprostaglandin Dehydrogenase). 15-hydroxyprostaglandin dehydrogenase [NAD(+)] (Homo sapiens), P15428. purified HPGD, NADH fluorescence kinetic, PGE2 substrate. Potency, µM, for inactives: at the top dose activity change, negative = inhibition, usual class: inhibitors. hit rate 4.3% among 150,000. AID 894, 2007; active = well fitted inhibition curve with a large enough effect (not every such curve was filed as active); inconclusive = small, poorly fitted or top-dose-only effect, or another doubt; inactive = no such curve, though single readings can be large or run the other way;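 further: top concentration of the series not given in the record; plate controls included wells without enzyme; inactives centre near -10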
Target sequence (P15428 whole entry, looked up): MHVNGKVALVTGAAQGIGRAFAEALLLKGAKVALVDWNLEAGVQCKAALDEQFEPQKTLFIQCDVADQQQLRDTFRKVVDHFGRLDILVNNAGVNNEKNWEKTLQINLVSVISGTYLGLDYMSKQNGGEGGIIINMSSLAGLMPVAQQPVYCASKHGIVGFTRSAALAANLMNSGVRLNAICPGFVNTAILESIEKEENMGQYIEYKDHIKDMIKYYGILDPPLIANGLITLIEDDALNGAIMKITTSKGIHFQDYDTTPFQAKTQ
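20 nM HPGD preincubated 15 min at room temperature with compound in 50 mM Tris-HCl pH 8, 0.01% Tween 20. Started with 1 mM NAD+ and 30 uM prostaglandin E2; NADH fluorescence (360/450 nm) read 5 times over 30-s intervals, last minus first.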
* hit, by the source's call; ? = inconclusive; & = joins results of further samples. On the % scale 0 is the no-effect control and ±100 the full control effect; potency means the concentration at half of the fitted maximal effect. This is a subset; the hit share may differ from the screen's.

no.	SMILES	HPGD inh
1	Nn1c(SCC(=O)N2CCN(S(=O)(=O)c3ccc(Cl)cc3)CC2)nnc1-c1cccs1	-10%
2	COc1ccc(C/C(N)=N/OC(=O)Cc2ccc(OC)c(OC)c2)cc1	-6%
3	COc1ccc(S(=O)(=O)Cc2ccc(C(=O)N3CCN(c4ccccc4)CC3)o2)cc1	-2%
4	CCOC(=O)c1cccc(NC(=O)C2CCCN(S(=O)(=O)c3c(C)nn(C)c3C)C2)c1 (configuration not stated)	-19%
5	CCOC(=O)C1=CN(C)C=C(C(=O)OCC)C1c1ccsc1	?
6	Cc1ccc2cc(CN(CC3CCCO3)C(=O)C(C)C)c(=O)[nH]c2c1 (configuration not stated)	-20%
7	Cn1c(=O)c2c(ncn2CC(=O)N2CCN(c3ccc(F)cc3)CC2)n(C)c1=O	-11%
8	CCOC(=O)/C=C1\SCC(=O)N1Cc1nnc(-c2ccccc2Br)o1	-24%
9	Brc1ccc(-c2ccc(/C=N/Nc3nc4ccccc4[nH]3)o2)cc1	?
10	CCOc1cc(/C=N/NS(=O)(=O)c2ccc(OC)cc2)ccc1OCCN1CCOCC1	-7%
11	NS(=O)(=O)Cc1noc2ccccc12	-4%
12	COC(=O)C1=C(C)Nc2nnnn2C1c1ccc(Cl)cc1Cl (configuration not stated)	-7%
13	CN(C(=O)CSc1nnc(Cc2cccc3ccccc23)n1N)C1CCS(=O)(=O)C1 (configuration not stated)	-6%
14	CSc1ccccc1C(=O)Nc1cc(C)cc(C)c1	-15%
15	O=C(O)Cc1ccc(N=Cc2c(O)ccc3ccccc23)cc1	-21%
16	COc1cccc(CNC(=O)C2CCN(S(=O)(=O)c3ccc(F)cc3)CC2)c1	-6%
17	CN1C(=O)c2ccc(NC(=O)c3c(F)c(F)c(F)c(F)c3F)cc2C1=O	?
18	CCOCCn1c(SCCCc2ccccc2)nc2c1c(=O)[nH]c(=O)n2C	-4%
19	Cc1nnc(SCC(=O)Nc2cc(-c3cc(C)c(C)cc3C)nn2-c2ccccc2)s1	-18%
20	CCCCCn1cnc2c(sc3nc4c(cc32)CSC(C)(C)C4)c1=O	?
21	CC1(C)CC(C2N3CC4(C)CN2CC(C)(C3)C4=O)CCO1 (configuration not stated)	-1%
22	C/C(=N\N=C\c1ccccc1F)c1nnn(-c2nonc2N)c1C	-8%
23	COc1ccccc1CN1CCCC(C(=O)N(C)Cc2ccccc2)C1 (configuration not stated)	-8%
24	COC(=O)c1sccc1NC(=O)Cc1ccc(OC)cc1	-7%
25	CC(c1ccco1)N(C(=O)c1ccc(S(=O)(=O)N2CCCCC2)cc1)c1ccccn1 (configuration not stated)	-15%
26	CNC(=O)c1sc(SC)cc1-c1ccc(Cl)cc1	-7%
27	OCCN1CCN(c2nc(-c3ccccc3)nc3c2oc2ccccc23)CC1	-25%
28	COc1ccc2c(c1)c(C(C)=O)c(C)n2-c1ccccc1	-7%
29	CCC1CCCN1Cn1cnc2c([nH]c3ccccc32)c1=O (configuration not stated)	?
30	Cc1ccc(C2(C(F)(F)F)NC(=O)N3CCCN=C3S2)cc1 (configuration not stated)	-7%
31	CCCCn1c(-c2nn(C)c(C)c2Cl)n[nH]c1=S	-18%
32	O=C(Cn1cnc2ccccc21)N/N=C/c1ccco1	?
33	Nc1nonc1-c1nc2ccccc2n1CC(=O)N1CCN(c2ccc(F)cc2)CC1	-7%
34	CCCCN(C(=O)Cc1cccs1)c1nnc(-c2cccnc2)s1	-14%
35	Cc1ccccc1NC(=O)C1C2CC/C=C\CCC21 (configuration not stated)	-11%
36	COc1ccc2c(c1)c(N=O)c(O)n2C	-4%
37	CCCn1nnc2c(=O)oc3ccccc3c21	-16%
38	CNC(=O)C(Sc1ccccc1)c1ccccc1 (configuration not stated)	-8%
39	CCOC(=O)Cn1c(=O)c2c(nc(N3CCCCC3)n2C)n(C)c1=O	-11%
40	COc1cccc(C2Nc3c(F)cc(Br)cc3C3C=CCC32)c1OC (configuration not stated)	-12%
41	Cc1nc2scc(-c3cccs3)c2c(=O)n1N	-18%
42	CCC(C)NC(=O)C1c2ccccc2C(=O)N(c2ccc(OC)cc2)C1c1ccc(OC)cc1 (configuration not stated)	-2%
43	Cc1ccc2c(c1)-c1c(ssc1=S)C(C)(C)N2C(=O)CN1C(=O)c2ccccc2C1=O	-12%
44	CCc1nnc(NC(=O)C2CCN(c3cnccn3)CC2)s1	-14%
45	CCOc1ccc(NC(=O)c2ccco2)cc1	-4%
46	COC(=O)c1ccccc1NC(=O)CSc1nc(-c2ccco2)cc(C(F)(F)F)n1	-20%
47	CN1CCN(c2nc(-c3cccs3)cc(C(F)(F)F)n2)CC1	-9%
48	O=c1cc(-c2ccccc2)[nH]c2ccc(Cl)cc12	-8%
49	CC(=O)c1cccc(NC(=O)C=C(C)C)c1	-7%
50	Cc1ccc(CNC(=O)C(=O)NCC2OCCN2C(=O)c2ccc(Cl)cc2)cc1 (configuration not stated)	-7%

A different layout for some results above.
[12] COC(=O)C1=C(C)Nc2nnnn2C1c1ccc(Cl)cc1Cl (configuration not stated)
  HPGD inh = -7%
[13] CN(C(=O)CSc1nnc(Cc2cccc3ccccc23)n1N)C1CCS(=O)(=O)C1 (configuration not stated)
  HPGD inh = -6%
[14] CSc1ccccc1C(=O)Nc1cc(C)cc(C)c1
  HPGD inh = -15%
[15] O=C(O)Cc1ccc(N=Cc2c(O)ccc3ccccc23)cc1
  HPGD inh = -21%

Next structures.
no.	SMILES	HPGD inh
51	O=C(c1ccccc1)c1sc(N2CCCCCC2)nc1-c1ccccc1	-16%
52	O=C(CC(=O)N/N=C\c1c(Cl)cccc1Cl)NCc1ccccc1	-8%
53	Cc1nnc(C)n1/N=C/c1ccccc1	6%
54	CC(C)(C)C1=CC(=O)C(=O)C(C(C)(C)C)=C1	4µM*
55	Cc1[nH]nc2c1C(c1cccc(OC(=O)N3CCOCC3)c1)C(C#N)=C(N)O2 (configuration not stated)	-9%
56	O=c1[nH][nH]c(-c2ccccc2O)c1C(C[N+](=O)[O-])c1ccc(Cl)cc1Cl (configuration not stated)	-1%
57	COc1ccc(OC)c(NC(=O)CSc2nnc(C3CCCCC3)n2-c2ccccc2)c1	0%
58	COc1cc(NC(=O)c2noc3c2CCCC3)c(OC)cc1Cl	-9%
59	O=C(COC(=O)CCCOc1ccc(Cl)cc1Cl)NCc1ccccc1	?
60	Cc1cc(C)c[n+](CC(=O)c2cc3ccccc3oc2=O)c1	?
61	CC(=O)c1cc(F)c(N2CCN(CCC#N)CC2)cc1C	-13%
62	Cn1nc(C(=O)Nc2cccc(C(F)(F)F)c2)ccc1=O	-4%
63	COc1cc(CNCCN2CCOCC2)ccc1OCc1ccccc1Cl	0%
64	Nc1c(S(=O)(=O)O)cc(Nc2ccc(Nc3nc(Cl)nc(Nc4ccc(S(=O)(=O)O)cc4)n3)c(S(=O)(=O)O)c2)c2c1C(=O)c1ccccc1C2=O	16µM*
65	O=C(O)C[C@H]1OCC=C2C[N@@+]3([O-])CC[C@]45c6ccccc6N[C@@H]4[C@@H]1[C@H]2C[C@H]53	-11%
66	Cc1ccccc1C(=O)N=c1c(C#N)cc2c(=O)n3cccc(C)c3nc2n1Cc1ccco1	?
67	CCOc1ccc(N2CC(C(=O)NCCN3C(=O)S/C(=C\c4ccc(OC)c(OC)c4)C3=O)CC2=O)cc1 (configuration not stated)	-9%
68	Cn1ncc2c(=O)n(/N=C/c3ccccc3)cnc21	-11%
69	CCCOC(=O)NC(CC)COC(=O)Nc1cccc(C)c1C (configuration not stated)	-1%
70	CC(C)c1nnc(NC(=O)c2ccc(S(=O)(=O)N3CCOCC3)cc2)s1	?
71	CCc1cc(=O)n2[nH]c(C)c(-c3ccccc3OC)c2n1	-17%
72	O=C1NC(=O)C2C1C(c1ccccc1)N1C3C(=O)NC(=O)C3C(c3ccccc3)N21 (configuration not stated)	-10%
73	Cc1ccc(N2C(=O)c3cccc4c(N5CCN(C)CC5)ccc(c34)C2=O)c2cccnc12	-4%
74	CC1(C)CC(=O)C(C=Nc2cccnc2)=C(O)C1	-5%
75	CCOC(=O)Cc1csc(N/N=C/c2ccc(C(F)(F)F)cc2)n1	-12%
76	CC(=O)c1cccc(S(=O)(=O)NC2CC2)c1	-12%
77	Nc1ccc(Nc2ccccc2)cc1	-6%
78	COC(=O)[C@@]1(Cc2ccccc2)[C@H]2c3cc(C(=O)N4CCCC4)n(Cc4ccsc4Br)c3C[C@H]2CN1C(=O)c1ccccc1	-11%&-4%
79	Cc1nc(NC(=O)/C=C/c2ccccc2)sc1C(=O)N(C)C	-4%
80	CCOC(=O)C1=C(NC(=S)NC(=O)c2ccccc2)c2ccccc2CC1(C)CC (configuration not stated)	-5%
81	COCCn1c(SCC(=O)Nc2ccc(S(=O)(=O)N(C)C)cc2)nc2ccccc21	-14%
82	NC(=O)c1csc(-c2ccncc2)n1	-8%
83	CCOc1ccc(/C=C/C(=O)c2c(O)c3ccccc3oc2=O)cc1	-6%
84	CC1CCCCN1C(=O)c1cnn2c(C(F)(F)F)cc(-c3ccco3)nc12 (configuration not stated)	7.1µM*
85	Brc1ccc(NCc2nnc3n2CCCCC3)cc1	-16%
86	CCSc1nnc(NC(=O)CSc2nc3c(cc2C#N)CCCC3)s1	?
87	CC(C)CCNC(=O)C(c1ccco1)N(CC1CCCO1)C(=O)Cn1nnc2ccccc21 (configuration not stated)	-4%
88	Cc1cc(N2CCN(c3ccccc3)CC2)nc(-c2ccccc2)n1	-17%
89	COc1cccc(NC(=O)N2CCCC2C(=O)NCC(C)C)c1 (configuration not stated)	4%
90	Cc1ccc(S(=O)(=O)N(C)CC(=O)Nc2ccccc2)cc1	-6%
91	C[C@]12C=CC(=O)C=C1CCC1C3CC[C@](O)(C(=O)CO)[C@@]3(C)CC3OC312 (some centres not stated)	-9%
92	Cn1c(=O)c2c(nc(CN3CCC(C(N)=O)CC3)n2CCCc2ccccc2)n(C)c1=O	-11%
93	O=C(c1cnc(-c2ccc(Cl)cc2)s1)c1ccc(Cl)cc1Cl	35µM*
94	COC(=O)CSc1nnc(-c2ccc3c(c2)OCO3)n1C	-3%
95	COc1ccc(C(=O)n2nc(-c3ccccc3)nc2N)cc1OC	-7%
96	CC(=O)N1N=C(c2ccncc2)OC12CCCC2	?
97	O=C(COC(=O)CCCNC(=O)c1ccc(Cl)cc1)Nc1ccc(Br)cc1	-8%
98	CCC(=O)Oc1ccc(-c2nc(-c3cccnc3)no2)cc1	-16%
99	COc1ccc2cc3cc(C(=O)NCc4ccccn4)oc3nc2c1	?
100	CCc1nnc(NC(=O)c2ccc(S(=O)(=O)N(CCOC)CCOC)cc2)s1	-7%

More compounds.
no.	SMILES	HPGD inh
101	COCCCNC(=O)CNC(=S)N(Cc1ccc(F)cc1)C1CCCCC1	-4%
102	O=C(CSc1n[nH]c(-c2ccc(Cl)cc2Cl)n1)Nc1ccccn1	-13%
103	O=c1c([N+](=O)[O-])cc(C(F)(F)F)cn1Cc1cccc(Cl)c1	-24%
104	CCSC1=NSC2=NC(=O)/C(=C\c3coc4ccccc4c3=O)C(=N)N12	28µM*
105	O=c1c2ccccc2c(C=Nc2cccc(O)c2)c(O)n1-c1ccc2c(c1)OCO2	-29%
106	Cc1ccc(NC(=S)N(CCCN2CCOCC2)Cc2ccccn2)cc1Cl	-9%
107	Cc1ccc(C(=O)NCc2ccc(N3CCN(C(=O)OC(C)(C)C)CC3)cc2)cc1	-6%
108	C=CC(C)(O)CCC=C(C)C (configuration not stated)	-5%&-6%
109	O=C(Nc1nnc(C2CC2)s1)c1ccc(S(=O)(=O)c2ccccc2)cc1	-11%
110	C=CCn1c(-c2oc3nc(-c4ccccc4)cc(-c4ccccc4)c3c2N)n[nH]c1=S	?
111	N#CCCn1cc(C(=O)O)c(-c2cc3ccccc3o2)n1	-19%
112	O=C(NCC#CCOCc1ccccc1)c1ccccc1	-9%
113	CCC12OC(=N)C(C#N)(C1C)C(C#N)(C#N)C(c1ccccc1)O2 (configuration not stated)	?
114	COc1ccc(/C(N)=N/OC(=O)Cc2cccs2)cc1OC	-7%
115	Cc1ccc(S(=O)(=O)N2CCC(=O)N([C@H](COCc3ccc(Cl)cc3)Cc3ccccc3)CC2)cc1	-9%
116	CC1=C(C#N)C2C(/C1=N/O)C2(C)C (configuration not stated)	-12%
117	CC/C=C\C[C@H](O)/C=C/C=C\C/C=C\C/C=C\CCCC(=O)O	-5%
118	CCCCn1nnnc1SCC(=O)N1CCN(C(=O)c2ccco2)CC1	-3%
119	CC(=O)Nc1ccc(N2C(=O)CC(N3CCN(Cc4ccc5c(c4)OCO5)CC3)C2=O)cc1 (configuration not stated)	-7%
120	CCOc1ccc(C2OC34CCCCC3C(C#N)(C#N)C2(C#N)C(=N)O4)cc1OC (configuration not stated)	?
121	COc1ccc(S(=O)(=O)Nc2ccc(C)cc2)cc1OC	-11%
122	O=C(/C=C\c1cn(-c2ccccc2)nc1-c1ccccc1)Nc1nccs1	?
123	Cc1ccc(S(=O)(=O)/N=C(/Nc2c(C)n(C)n(-c3ccccc3)c2=O)c2ccc(Cl)cc2)cc1	-2%
124	C/C(=N/Nc1cc(-c2ccccc2)nc(-c2ccccc2)n1)c1ccc(O)cc1	?
125	O=C(Cn1ccc(=O)[nH]c1=O)Nc1ccc(C(=O)O)c(O)c1	-2%
126	Cc1cccc(NC2=NC(C)(C)N=C(N)N2)c1C	-4%
127	C/C(CC(=O)Nc1cccnc1)=N\NC(=O)c1ccc([N+](=O)[O-])c(Cl)c1	-26%
128	CCN(CCO)c1cc(Cl)nc(SC)n1	-13%

Compound activity (PubChem BioAssay)
